# UUG fidelity: modulators of start codon recognition fidelity in yeast. S. cerevisiae UUG-firefly luciferase reporter, luminescence/redox ratio. activity score, % at 18.7 µM. actives 0.13% (n = 350,000). AID 602363;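 active means replicate mean at a twofold rise or more, about +100% in these data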;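 further: firefly luciferase made from a UUG start codon reports start codon fidelity; reporter light over untreated wells divided by growth signal over untreated wells; some hits fall short of that in this replicate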
# * marks the source's active call; other numbers are inactive results. Only part of the results is shown; count on the stated rates, not on these rows.
SMILES,UUG fidelity
COc1ccc(NC(=O)N(C)C[C@H]2Oc3ccc(NC(=O)NC(C)C)cc3C(=O)N([C@H](C)CO)C[C@H]2C)cc1,33
C/C=C/c1ccc([C@H]2[C@H](CO)N3CCCCN(S(=O)(=O)c4ccc(F)cc4)C[C@@H]23)cc1,-10
O=C(CC(F)(F)F)N1C[C@H]2[C@@H](c3ccccc31)[C@H](CO)N2C(=O)Cc1cccnc1,31
Cc1cccc(-c2ccc([C@H]3[C@@H](CO)N4CCCCN(C(=O)c5ccncc5)C[C@H]34)cc2)c1,-17
O=C(C1CCOCC1)N1[C@H](CO)[C@H]2c3ccccc3NC[C@H]21,-7
COc1ccc(S(=O)(=O)N(C)C[C@H]2Oc3c(NC(=O)C4CCOCC4)cccc3C(=O)N([C@H](C)CO)C[C@H]2C)cc1,7
C[C@@H]1CN([C@@H](C)CO)C(=O)c2c(c3ccccc3n2C)-c2ccccc2CO[C@@H]1CN(C)S(C)(=O)=O,8
C[C@@H]1CN([C@H](C)CO)C(=O)Cc2cc(NC(=O)Cc3cn(C)c4ccccc34)ccc2O[C@H]1CN(C)C(=O)NC1CCCCC1,-2
COCC(=O)N1C[C@@H](C)[C@@H](OC)CN(C)C(=O)c2ccc(NC(=O)c3cc(C)on3)cc2OC[C@@H]1C,-3
C[C@H]1CN([C@@H](C)CO)C(=O)Cc2cc(NC(=O)CCCN(C)C)ccc2O[C@@H]1CN(C)C(=O)NC1CCCCC1,-9
CN1c2ccc(-c3cccc(C#N)c3)cc2[C@H]2[C@H](CCN2C(=O)CN2CCOCC2)[C@H]1CO,4
O=C(C1CCC1)N1CCCCN2[C@H](CO)[C@@H](c3ccc(-c4cccc(F)c4)cc3)[C@@H]2C1,1
Cc1cc(C(=O)Nc2cccc3c2O[C@@H](CN(C)C(=O)Nc2ccc4c(c2)OCO4)[C@@H](C)CN([C@@H](C)CO)C3=O)n(C)n1,11
O=C(C[C@@H]1C[C@H]2c3cc(NC(=O)Nc4ccccc4)ccc3O[C@H]2[C@@H](CO)O1)NCc1cccc(F)c1,-7
CN(C)CC#Cc1ccc([C@H]2[C@H]3CN(S(=O)(=O)c4ccccc4F)CCCCN3[C@H]2CO)cc1,14
Cc1cc(C(=O)Nc2cccc3c2O[C@@H](CN(C)Cc2ccc(-c4ccccc4)cc2)[C@H](C)CN([C@H](C)CO)C3=O)n(C)n1,2
O=C(NC[C@H]1N[C@H](CO)[C@@H]1c1ccccc1)c1ccccc1F,6
CO[C@@H]1CN(C)C(=O)c2cc(NC(=O)NC3CCCCC3)ccc2OC[C@@H](C)N(CC2CCOCC2)C[C@H]1C,-6
CC(C)NC[C@@H]1[C@@H](c2ccc(C3=CCCCC3)cc2)[C@H](CO)N1C(=O)NC(C)C,2
O=C(Nc1cccc(F)c1)N1CCCCN2[C@@H](CO)[C@H](c3ccc(C#Cc4ccccc4)cc3)[C@@H]2C1,4
CCCN1[C@H](C(=O)NCC)[C@@H](CO)[C@@H]2Cn3c(ccc(C4=CCCC4)c3=O)[C@@H]21,13
OC[C@@H]1[C@H](c2ccc(C3=CCCC3)cc2)[C@H]2CN(Cc3cccnc3)CCCCN12,5
C[C@H]1CN([C@@H](C)CO)C(=O)c2cccc(NS(=O)(=O)c3ccc(Cl)cc3)c2O[C@H]1CN(C)Cc1ccc(Oc2ccccc2)cc1,27
COc1ccc(NC(=O)N(C)C[C@H]2Oc3c(NC(=O)Nc4c(C)noc4C)cccc3C(=O)N([C@@H](C)CO)C[C@@H]2C)cc1,-2
CC(=O)N1[C@@H]2Cn3c(ccc(C4=CCCCC4)c3=O)[C@H]1[C@@H](C(=O)NC1CCCC1)[C@@H]2CO,14
COc1cccc(-c2ccc3c(c2)[C@@H]2[C@@H](CCN2C(=O)C2CCC2)[C@@H](CO)N3)c1,-16
O=C(C[C@@H]1CC[C@H]2[C@@H](COC[C@H](O)CN2Cc2ccccc2F)O1)N[C@@H]1CCN(Cc2ccccc2)C1,7
O=C(C[C@@H]1CC[C@H]2[C@@H](COC[C@@H](O)CN2C(=O)Nc2ccccc2)O1)NCCCN1CCOCC1,-10
CO[C@@H]1CN(C)C(=O)c2ccc(NC(=O)Nc3ccccc3F)cc2OC[C@@H](C)N(Cc2ccccc2C(=O)O)C[C@H]1C,5
O=C(c1ccccc1)N1CC[C@@H]2[C@H](CO)Nc3ccc(C#Cc4ccccc4F)cc3[C@@H]21,-27

# Copied from above (eleven entries):
SMILES,UUG fidelity
Cc1cc(C(=O)Nc2cccc3c2O[C@@H](CN(C)Cc2ccc(-c4ccccc4)cc2)[C@H](C)CN([C@H](C)CO)C3=O)n(C)n1,2
O=C(NC[C@H]1N[C@H](CO)[C@@H]1c1ccccc1)c1ccccc1F,6
CO[C@@H]1CN(C)C(=O)c2cc(NC(=O)NC3CCCCC3)ccc2OC[C@@H](C)N(CC2CCOCC2)C[C@H]1C,-6
CC(C)NC[C@@H]1[C@@H](c2ccc(C3=CCCCC3)cc2)[C@H](CO)N1C(=O)NC(C)C,2
O=C(Nc1cccc(F)c1)N1CCCCN2[C@@H](CO)[C@H](c3ccc(C#Cc4ccccc4)cc3)[C@@H]2C1,4
CCCN1[C@H](C(=O)NCC)[C@@H](CO)[C@@H]2Cn3c(ccc(C4=CCCC4)c3=O)[C@@H]21,13
OC[C@@H]1[C@H](c2ccc(C3=CCCC3)cc2)[C@H]2CN(Cc3cccnc3)CCCCN12,5
C[C@H]1CN([C@@H](C)CO)C(=O)c2cccc(NS(=O)(=O)c3ccc(Cl)cc3)c2O[C@H]1CN(C)Cc1ccc(Oc2ccccc2)cc1,27
COc1ccc(NC(=O)N(C)C[C@H]2Oc3c(NC(=O)Nc4c(C)noc4C)cccc3C(=O)N([C@@H](C)CO)C[C@@H]2C)cc1,-2
CC(=O)N1[C@@H]2Cn3c(ccc(C4=CCCCC4)c3=O)[C@H]1[C@@H](C(=O)NC1CCCC1)[C@@H]2CO,14
COc1cccc(-c2ccc3c(c2)[C@@H]2[C@@H](CCN2C(=O)C2CCC2)[C@@H](CO)N3)c1,-16

# Remaining list, next part
SMILES,UUG fidelity
CO[C@H]1CN(C)C(=O)c2cc(NC(=O)c3nc4ccccc4s3)ccc2OC[C@H](C)NC[C@H]1C,9
COCC(=O)N1C[C@H](C)[C@@H](OC)CN(C)C(=O)c2cc(NC(=O)c3cnccn3)ccc2OC[C@@H]1C,3
O=C(C1CC1)N1[C@@H](CO)[C@@H]2c3ccccc3N(S(=O)(=O)c3ccccc3)C[C@@H]21,-6
C[C@H]1CN([C@@H](C)CO)C(=O)Cc2cc(NC(=O)CCC(F)(F)F)ccc2O[C@@H]1CN(C)C(=O)Nc1ccc(F)cc1,8
C[C@H]1CN([C@@H](C)CO)C(=O)c2cc(NC(=O)Nc3cccc4ccccc34)ccc2O[C@@H]1CN(C)Cc1ccc(C(=O)O)cc1,-2
CCCNC(=O)Nc1ccc2c(c1)C(=O)N(C)[C@@H]1CC[C@@H](CC(=O)NCc3ccccc3)O[C@@H]1CO2,4
COC(=O)C[C@H]1CC[C@H]2[C@@H](COc3ccc(NC(=O)C4CCOCC4)cc3C(=O)N2C)O1,-1
COc1ccc(-c2ccc3c(c2)[C@H]2[C@H](CCN2C(=O)C2CC2)[C@@H](CO)N3C)cc1,17
O=S(=O)(Cc1ccccc1)N1CCCCN2[C@H](CO)[C@H](c3ccc(-c4ccc(F)cc4)cc3)[C@H]2C1,8
C[C@H]1CN([C@@H](C)CO)C(=O)Cc2cc(NC(=O)Nc3cccc4ccccc34)ccc2O[C@@H]1CN(C)C,-4
CCC(=O)N1C[C@H]2[C@@H](c3ccccc31)[C@H](CO)N2Cc1ccccc1F,3
O=C(C1CCCC1)N1C[C@@H]2[C@H](c3ccccc31)[C@H](CO)N2C(=O)c1ccccc1,0
COc1ccc(CN(C)C[C@@H]2Oc3ccc(NS(=O)(=O)c4cn(C)cn4)cc3CC(=O)N([C@@H](C)CO)C[C@H]2C)cc1,16
C[C@H]1CN([C@@H](C)CO)C(=O)c2cc(NC(=O)CCCCCC(=O)Nc3ccccc3N)ccc2O[C@H]1CN(C)Cc1ccc(Cl)c(Cl)c1,-6
C[C@@H]1CN([C@@H](C)CO)C(=O)c2cccc(NC(=O)Nc3ccc(C(F)(F)F)cc3)c2O[C@@H]1CN(C)Cc1ccncc1,-1
CCC(=O)NC[C@@H]1[C@H](c2ccccc2)[C@H](CO)N1C(=O)C1CCC1,10
C[C@@H]1CN([C@H](C)CO)C(=O)c2cc(NC(=O)CCC(F)(F)F)ccc2O[C@H]1CN(C)C(=O)Nc1ccc(C(F)(F)F)cc1,12
O=C(O)C[C@H]1C[C@@H]2c3cc(NC(=O)c4cccnc4)ccc3O[C@@H]2[C@@H](CO)O1,-10
Cc1ccccc1-c1ccc([C@@H]2[C@@H](CO)N3CCCCN(S(=O)(=O)Cc4ccccc4)C[C@H]23)cc1,0
CC(C)NC(=O)N(C)C[C@H]1Oc2ccc(NC(=O)Nc3ccc(F)cc3)cc2C(=O)N([C@H](C)CO)C[C@H]1C,12
COCC(=O)N1CC[C@@H]2[C@H]1c1cc(-c3ccc(OC)cc3)ccc1N(C)[C@@H]2CO,-5
CCN(C[C@@H]1N[C@@H](CO)[C@H]1c1ccccc1)C(=O)c1ccncc1,-16
C[C@@H]1CN([C@H](C)CO)C(=O)c2cc(NC(=O)CCCN(C)C)ccc2O[C@H]1CN(C)C,2
Cc1ccccc1NC(=O)Nc1ccc2c(c1)C(=O)N(C)[C@H]1CC[C@@H](CC(=O)NCC3CC3)O[C@H]1CO2,13
CO[C@H]1CN(C)C(=O)c2cc(NC(=O)C3CCC3)ccc2OC[C@@H](C)N(Cc2ccc(F)cc2)C[C@H]1C,-1
COc1ccc(NC(=O)Nc2ccc3c(c2)[C@@H]2C[C@@H](CC(=O)N(C)C)O[C@H](CO)[C@@H]2O3)cc1,-9
CC(C)CC#Cc1ccc([C@H]2[C@H](CO)N3CCCCN(C(=O)c4ccc5c(c4)OCO5)C[C@@H]23)cc1,-1
CO[C@H]1CN(C)C(=O)c2cc(NC(=O)c3cc(C)on3)ccc2OC[C@@H](C)N(C(C)=O)C[C@@H]1C,1
C[C@H]1CN([C@@H](C)CO)C(=O)c2cc(NC(=O)Cc3ccccc3)ccc2O[C@H]1CN(C)Cc1ccc(Cl)c(Cl)c1,19
CC(=O)N1CCCCN2[C@H](CO)[C@H](c3ccc(Br)cc3)[C@H]2C1,-2
C[C@@H]1CN([C@H](C)CO)C(=O)c2cccc(NC(=O)c3cnccn3)c2O[C@H]1CN(C)C(=O)Nc1ccc(C(F)(F)F)cc1,-6
CCS(=O)(=O)N1CCCCN2[C@H](CO)[C@@H](c3ccc(C#Cc4ccccc4OC)cc3)[C@H]2C1,7
O=C(c1cccc(F)c1)N1C[C@@H]2[C@H](c3ccccc31)[C@H](CO)N2C(=O)c1ccc(F)cc1,4
OC[C@@H]1[C@H](c2ccc(-c3ccc(F)cc3)cc2)[C@H]2CN(Cc3cccnc3)CCCCN12,-14
COc1ccc(S(=O)(=O)Nc2ccc3c(c2)C(=O)N([C@H](C)CO)C[C@H](C)[C@H](CN(C)Cc2ccc4c(c2)OCO4)O3)cc1,9
C[C@H](CO)N1C[C@H](C)[C@@H](CN(C)C)Oc2ccc(NC(=O)CCCN(C)C)cc2C1=O,0
Cc1ccc(-c2ccc([C@H]3[C@H](CO)N4CCCCN(Cc5cncnc5)C[C@@H]34)cc2)cc1,-10
COCC(=O)N1[C@@H](CO)[C@H](c2ccccc2)[C@@H]1CN(C)C(=O)c1cccnc1,0
COc1ccc(S(=O)(=O)Nc2ccc3c(c2)C(=O)N([C@@H](C)CO)C[C@H](C)[C@@H](CN(C)C(=O)Nc2cccc4ccccc24)O3)cc1,2
CO[C@@H]1CN(C)C(=O)c2ccc(NS(=O)(=O)c3ccc(Cl)cc3)cc2OC[C@@H](C)N(C(=O)NC(C)C)C[C@H]1C,20
COCC(=O)N1C[C@@H]2[C@H](c3ccccc31)[C@H](CO)N2C(=O)C1CCCCC1,21
O=C(C[C@H]1CC[C@@H]2[C@H](COC[C@H](O)CN2S(=O)(=O)c2ccccc2F)O1)NCc1ccccc1Cl,17
CCCC(=O)Nc1ccc2c(c1)C(=O)N(C)C[C@@H](OC)[C@@H](C)CN(Cc1ccccc1F)[C@@H](C)CO2,-2
CO[C@@H]1CN(C)C(=O)c2cc(NC(=O)C3CC3)ccc2OC[C@H](C)N(CC2CCOCC2)C[C@@H]1C,-7
C[C@@H]1CN([C@H](C)CO)C(=O)c2cccc(NS(C)(=O)=O)c2O[C@H]1CN(C)C(=O)Nc1ccc(F)cc1,-2
CCCC(=O)Nc1ccc2c(c1)OC[C@@H](C)N(C(=O)c1cnccn1)C[C@@H](C)[C@H](OC)CN(C)C2=O,-4
CN(C)CC(=O)N1[C@@H](CO)[C@@H]2c3ccccc3N(C(=O)Cc3ccccc3)C[C@@H]21,52
CO[C@@H]1CN(C)C(=O)c2cc(NS(=O)(=O)c3cn(C)cn3)ccc2OC[C@@H](C)N(Cc2cccc(F)c2)C[C@H]1C,-6
O=C(C[C@@H]1CC[C@H]2[C@@H](COC[C@@H](O)CN2S(=O)(=O)c2ccc(F)cc2)O1)N[C@@H]1CCN(Cc2ccccc2)C1,10
COCC(=O)Nc1ccc2c(c1)C(=O)N(C)C[C@H](OC)[C@@H](C)CN(Cc1ccccc1OC)[C@@H](C)CO2,-6
CCN1[C@@H]2c3ccc(C4=CCCC4)c(=O)n3C[C@@H]2[C@@H](CO)[C@@H]1C(=O)NCc1ccccn1,-16
C[C@@H]1CN([C@@H](C)CO)C(=O)c2cccc(NS(=O)(=O)c3ccccc3)c2O[C@@H]1CN(C)Cc1ccc(-c2ccccc2)cc1,31
COCC(=O)Nc1ccc2c(c1)C(=O)N(C)[C@@H]1CC[C@@H](CC(=O)NCCc3ccncc3)O[C@H]1CO2,-1
O=C(c1cccnc1)N1CCCCN2[C@@H](CO)[C@H](c3ccc(C#Cc4cccnc4)cc3)[C@@H]2C1,-20
O=S(=O)(NC[C@@H]1[C@@H](c2ccccc2)[C@H](CO)N1CC1CC1)c1ccccc1,20
CCCNC(=O)Nc1ccc2c(c1)C(=O)N(C)C[C@H](OC)[C@H](C)CN(C(=O)C1CCOCC1)[C@@H](C)CO2,-6
O=C(C[C@H]1CC[C@@H]2[C@H](COC[C@@H](O)CN2Cc2nccs2)O1)NCc1ccc(Cl)cc1,-7

# Screens deposited in PubChem by Broad Institute.
